Compound activity deposited in PubChem BioAssay by ICCB-Longwood Screening Facility, Harvard Medical School.
Ba CapD inh: blocks the Bacillus anthracis CapD enzyme. AID 492967. hit rate 0.23% among 140,000. purified CapD enzyme, fluorescence intensity read-out; active compounds read low; some hits fall short of the stated cut. z-score (concentration not given with the values);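 active = z-score under -4 in either of two replicates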;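 note: stock transfer was 100 nL into about 40 µL; score is relative to mean and spread of the plate; one replicate is shown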
AID504770: growth inhibitors of E. coli YBA685 in a screen for V. cholerae RctB (chromosome II replication) inhibitors; E. coli YBA685 rctB-dependent plasmid, OD600 growth, 3 h; active compounds read low; z-score (no concentration beside the values); hit rate 0.27% among 130,000;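 active = z-score under -2 on both plates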;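 note: wells of about 30 µL received 100 nL stock; score is relative to mean and SD of the test wells; the first replicate is given; strong numbers were not always called active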
The depositor's hits bear a star; / = not tested or not shown; & = joins results of further samples. These rows are one share of the data, so the mix of outcomes need not match the whole.

SMILES	Ba CapD inh	AID504770
O=C(O)CCC(=O)Nc1ccc(S(=O)(=O)N2CCOC3CCCCC32)cc1 (centres undefined)	-0.305	/
c1ccc(OCCCn2c3ccccc3c3nc4ccccc4nc32)cc1	-0.19	-0.5
COc1ccc(N(C)C(=O)CN2C(=O)C3C4C=CC(C4)C3C2=O)cc1 (centres undefined)	-0.015	-0.15
O=C1CC(=O)CC2(CCCC2)C1	/	0.5
Cc1ccccc1OCCCn1cc(C(=O)C(C)(C)C)c2ccccc21	-0.83	-1.35
CCOC(=O)c1sc2ncccc2c1NC(=O)C(F)(F)F	1.75	1.1
CC(=O)Oc1cccc(/C=N/NC(=O)c2ccc([N+](=O)[O-])o2)c1	-3.52	/
COC(=O)C1=C(C)OC(N)=C(C#N)C1c1ccc(F)cc1 (centres undefined)	1.77	/
COc1ccc(CCNC(=O)CCNc2ccccc2C)cc1OC	/	-0.45
O=c1cc(-c2ccccc2)oc2ccc(Cl)cc12	0.045	-0.5
O=C(c1cc2nc(-c3ccccc3)cc(C(F)(F)F)n2n1)N1CCCC1	/	-0.35
N#CC1=C(N)n2c(s/c(=C/c3ccc(OCc4ccccc4)cc3)c2=O)=C(C#N)C1c1ccc(OCc2ccccc2)cc1 (centres undefined)	0.62	/
CCOC(=O)c1cc(CC)sc1NC(=O)c1ccco1	/	0.05
CCOC(=O)c1c(C)n(-c2ccccc2)c2c1cc(OC(=O)c1ccc(OCC)cc1)c1ccccc12	-0.175	/
CCN1CCCC1CNC(=O)C1=CCN(S(=O)(=O)c2ccccc2)CC1 (centres undefined)	0.025	-0.45
CC(C)n1c(Cc2ccccc2)nc2ccccc21	-0.495	-1.3
Cc1nc2ccccc2n1Cc1cccc(Cl)c1	-0.31	-1.65
CC(NC(=O)C12CC3CC(CC(C3)C1)C2)C(=O)NN (centres undefined)	/	-0.25
CN(CC(=O)NC1CCCc2ccccc21)C1CCCCC1 (centres undefined)	/	1.5
O=C(O)C1c2ccccc2C(=O)N(Cc2ccc(F)cc2)C1c1cccs1 (centres undefined)	0.03	0.4

An excerpt of these results, with two lines to a compound:
Second line of a record – Ba CapD inh | AID504770
> c1ccc(OCCCn2c3ccccc3c3nc4ccccc4nc32)cc1
  -0.19 | -0.5
> COc1ccc(N(C)C(=O)CN2C(=O)C3C4C=CC(C4)C3C2=O)cc1 (centres undefined)
  -0.015 | -0.15
> O=C1CC(=O)CC2(CCCC2)C1
  / | 0.5
> Cc1ccccc1OCCCn1cc(C(=O)C(C)(C)C)c2ccccc21
  -0.83 | -1.35
> CCOC(=O)c1sc2ncccc2c1NC(=O)C(F)(F)F
  1.75 | 1.1

Remaining list, next part
SMILES	Ba CapD inh	AID504770
Fc1cccc(Cl)c1COc1ccc(-c2ccnc3ncnn23)cc1	76	/
O=C(O)/C(=C\c1ccccc1)c1ccccc1	/	-0.85
O=C(Cn1cnc([N+](=O)[O-])n1)Nc1ccc(F)c(Cl)c1	-0.095	/
CC1=CCC2C(=O)N(c3ccc(I)cc3)C(=O)C2C1 (centres undefined)	0.345	/
CCOC(=O)C1=C(C)NC(=O)CC1c1cc2c(cc1Br)OCO2 (centres undefined)	0.41	0.7
N=c1ncn(Cc2ccccc2)c2nc(SCC(=O)O)[nH]c12	-0.175	-0.35
COc1cccc(CNC(=O)C2CCN(c3ncccn3)CC2)c1	/	0
CCn1c(C(=O)N2CCCC(C(=O)NCCc3ccc(S(N)(=O)=O)cc3)C2)cc2sccc21 (centres undefined)	0.33	-1.1
CC(OC(=O)C1Cc2ccccc2CN1S(C)(=O)=O)C(=O)Nc1ncc(Cl)cc1Cl (centres undefined)	/	-0.4
Oc1ccccc1C(O)C(F)(F)F (centres undefined)	-0.295	-1.05
OCc1ccc(OCCOc2cccc3cccnc23)cc1	16.5	1.4
CC(N)C(O)c1cccc(O)c1 (centres undefined)	-0.075	0.15
CCCc1cc(=O)oc2cc(OC(=O)c3cccnc3N3CCCC3)ccc12	/	-0.6
O=C1CSC(c2cccnc2)N1Cc1ccc(Cl)cc1Cl (centres undefined)	0.625	-0.15
Cc1cc(S(=O)(=O)NC2CCCCNC2=O)c(C(F)(F)F)o1 (centres undefined)	-0.355	-0.3
CCSc1nc2c(c(=O)n1-c1ccc(C)cc1)SCC2	-0.19	0.95
CCS(=O)CCSc1nc(-c2ccc(C)cc2)cc(-c2ccccc2)c1C#N (centres undefined)	-0.915	1.85
COc1ccc(-c2nc3cc(OC)c(OC)cc3c(=O)o2)cc1	-0.08	1.75
Cc1ccc2c(c1)N(C)C(=O)CC(c1ccccc1)=N2	-0.62	/
COc1ccc(-n2ncc3c(N4CCN(c5cc(C)ccc5C)CC4)ncnc32)cc1	-0.015	/
Cc1cc(C)nc(NC2=NCCN2)n1	0.09	-1.1
Cn1c(SCC(=O)c2ccccc2)nc2c1c(=O)[nH]c(=O)n2C	0.28	-0.05
CCOC(=O)C1=C(CCl)OC(N)=C(C#N)C1c1cccc(OCc2ccccc2)c1 (centres undefined)	-0.01	/
Cc1sc2ncn(CC(=O)NCC3COc4ccccc4O3)c(=O)c2c1S(=O)(=O)N1CCOCC1 (centres undefined)	0.1	-0.5
COc1ccc(C2CC(c3ccc(C)cc3)=NN2C(=O)CCCC(=O)O)cc1 (centres undefined)	0	/
O=C1c2ccccc2C(=O)N1CNc1ccc(Oc2ccccc2)cc1	-0.835	/
Cc1nc(-c2cccc(C(F)(F)F)c2)c(C)[nH]1	0.065	/
O=C(Nc1ccccc1SC(F)(F)F)c1cccnc1	-0.105	-0.5
CC1=C(c2ccc(C)cc2)S(=O)(=O)N=C1Nc1ccc(C)cc1	0.175	0.7
CNCc1nc2ccccc2c(=O)[nH]1	/	-1.2
Cc1ccc(N2CCN(S(=O)(=O)c3ccccc3Br)CC2)cc1	-0.005	/
COc1cc(OC)nc(N2CCN(Cc3ccccc3)CC2)n1	-0.73	/
CC(=O)Nc1ccc(S(=O)(=O)NC2CC3CCC2(C)C3(C)C)cc1 (centres undefined)	0.6	/
Cc1ccc(C(=O)C2CCN(S(=O)(=O)c3c(C)noc3C)CC2)cc1	-0.39	/
COc1cc(C)nc(N2CCCC(C(=O)Nc3ccccc3Br)C2)n1 (centres undefined)	/	-1.05
CC(=O)c1csc([N+](=O)[O-])c1	-0.445	/
COC(=O)c1sc(S(=O)(=O)Nc2ccc(OC)cc2)cc1Cl	-0.605	-0.9
O=C(Nc1ccc(F)c([N+](=O)[O-])c1)c1ccc2c(c1)OCCO2	0.14	/
COC(=O)c1ccc(Cn2cc(Cl)cn2)cc1	0.305	0.3
CC(=O)Nc1ccc(CCc2nc3ccccc3[nH]2)cc1	/	-1.1
COc1ccccc1N(NC(=O)C(O)(c1ccccc1OC)c1ccccc1OC)C(=O)c1ccccc1	-0.105	/
Cc1ccc(NC(=O)CSc2nc3c(oc4ccccc43)c(=O)n2Cc2ccc(F)cc2)c(C)c1	5.95	2.3
COc1ccccc1NC(=O)c1oc2ccccc2c1NC(=O)Cc1cccc(C)c1	0.035	-0.75
Cc1cc(C)cc(NC(=O)COC(=O)c2ccc(F)cc2F)c1	-0.555	0.2
O=C(Cn1c(=O)n(CC(=O)NC2CCCCC2)c2ccccc21)NC1CCCCC1	0.025	0
CCOc1ccc2[nH]cc(C(=O)O)c(=O)c2c1	11.9	1.6
Cc1ccc(/C(O)=C2\C(=O)C(=O)N(CCN(C)C)C2c2ccc(C(C)C)cc2)cc1 (centres undefined)	-0.245	/
CN(CCOc1ccccc1)CC(=O)Nc1cccc(C#N)c1	/	-0.1
CCOC(=O)C1=CN(Cc2ccc(OC)c(OC)c2)C=C(C(=O)OCC)C1c1cc(Br)c(O)c(OC)c1	45.5	/
CC(=O)Nc1cccc(N2C(=O)C=CC2=O)c1	/	0.35
O=[N+]([O-])/C=C/c1ccccc1[N+](=O)[O-]	-0.455	/
COc1ccccc1CNc1ccc2c(c1)ncn2C(C)C	/	-0.3
O=C(Cc1ccccc1)N1CCN(C2CCCC2)CC1	/	-1.15
COc1cc(C(=O)Nc2sc(C(=O)N3CCOCC3)c(C)c2C#N)cc(OC)c1OC	/	0.1
COc1ccc(-c2nnc(SCc3nc(N)nc(Nc4ccccc4C)n3)o2)cc1OC	/	-0.5
CCOC(=O)Cn1nc(-c2ccccc2)c2cnc3ccccc3c21	-0.56	1.75
CC1CC(C)CN(c2nc3nonc3nc2N2CC(C)CC(C)C2)C1 (centres undefined)	0.27	/
O=C1SC(c2ccccc2)=N/C1=C/c1ccco1	0.27	0.05
Cc1c(Br)c(C(F)(F)F)nn1CC(=O)Nc1sc2c(c1C(N)=O)CCCC2	-0.31	/
Cn1nnnc1SCC(=O)NC(=O)c1ccccc1Br	/	-0.95

The listing continues.
SMILES	Ba CapD inh	AID504770
Cc1cc(C)c2c(=O)n(CC(=O)NC3CCCC3)sc2n1	0.84	0.55
CC1(C)C=Cc2ccc(OCC(=O)Nc3ccccc3)cc2O1	-0.505	-0.5
COc1ccc2cc3c(NC(=O)c4cnccn4)n[nH]c3nc2c1	0.795	-0.35
CC(CN1CCCCC1)NC(=O)c1cccs1 (centres undefined)	0.63	0.55
Nc1nc(-c2ccccc2)c(-c2ccccc2)s1	0.28&0.33	0.15&-0.9
CC(=O)C1C2=C(CC(C)(C)CC2=O)OC2=C1C(=O)CC(C)(C)C2	-0.705	/
O=C(Nc1ccc(-n2cncn2)cc1)c1ccccc1N1CCOCC1	2.83	-0.65
Cc1ccc(-n2c(N)c(C#N)c3nc4ccccc4nc32)cc1C	0.165	0.15
Cc1ccc(C(=O)Nc2sccc2C(N)=O)cc1C	0.805	1.7
Cc1[nH]c(C)c(S(=O)(=O)NC(C)(C)C)c1C(=O)N1CCCC1	0.02	-1.1
O=S(=O)(c1cccs1)N1CCN(c2ccccn2)CC1	1.14	-0.3
O=C(Nc1c2c(nn1-c1ccc(F)cc1)CS(=O)(=O)C2)c1ccc(C(=O)c2ccccc2)cc1	-0.205	/
Cc1cc(NC(=O)Cc2ccccc2)no1	/	-1.1
O=C(c1ccc(F)cc1)N(NC(=O)C(O)(c1ccccc1)c1ccccc1)c1ccccc1	0.365	/
COC(=O)c1c(NC(=O)CCN2C(=O)c3ccccc3C2=O)sc2c1CCC(C)C2 (centres undefined)	-0.415	/
Clc1ccc(C2=CSc3nnc(Cc4ccccc4)n3N2)cc1	0.35	0.1
CN(c1ccc(C(=O)NCC2CCCO2)cc1)S(C)(=O)=O (centres undefined)	/	-1.5
Cc1ccccc1NS(=O)(=O)c1cc2c(c([N+](=O)[O-])c1)-c1c(cc(S(=O)(=O)Nc3ccccc3C)cc1[N+](=O)[O-])C2=NO	0.315	/
CCOc1ccccc1/C=C/C(=O)NCC(=O)N1CCC(N(C)C2CCCC2)CC1	17.1	-0.05
CC1CC(Nc2ccccc2)c2ccccc2N1C(=O)c1cc([N+](=O)[O-])cc([N+](=O)[O-])c1 (centres undefined)	-0.84	/

Single records, as listed above. Screens in order: Ba CapD inh, AID504770
Record of `CCOc1ccccc1/C=C/C(=O)NCC(=O)N1CCC(N(C)C2CCCC2)CC1` : 17.1, -0.05
Record of `Cc1[nH]c(C)c(S(=O)(=O)NC(C)(C)C)c1C(=O)N1CCCC1` : 0.02, -1.1
Record of `Cc1cc(C)c2c(=O)n(CC(=O)NC3CCCC3)sc2n1` : 0.84, 0.55
Record of `O=S(=O)(c1cccs1)N1CCN(c2ccccn2)CC1` : 1.14, -0.3
Record of `Clc1ccc(C2=CSc3nnc(Cc4ccccc4)n3N2)cc1` : 0.35, 0.1

3 compounds already listed, sorted by molar mass, low to high.
SMILES	Ba CapD inh	AID504770
Cc1cc(C)c2c(=O)n(CC(=O)NC3CCCC3)sc2n1	0.84	0.55
COC(=O)c1c(NC(=O)CCN2C(=O)c3ccccc3C2=O)sc2c1CCC(C)C2 (centres undefined)	-0.415	/
Cc1ccccc1NS(=O)(=O)c1cc2c(c([N+](=O)[O-])c1)-c1c(cc(S(=O)(=O)Nc3ccccc3C)cc1[N+](=O)[O-])C2=NO	0.315	/

Carrying on.
SMILES	Ba CapD inh	AID504770
c1ccc2c(c1)N1CCN=C1N2CCN1CCOCC1	-0.155	/
Nc1nc2c(nc(N3CCCCC3)n2[C@@H]2O[C@H](CO)[C@@H](O)[C@H]2O)c(=O)[nH]1	1.67	-0.35
Cc1ccc(/C=C2/Sc3ccccc3NC2=O)cc1	-0.055	0.1
CCOC(=O)c1c(C)cc2ccccn12	101	1.7
CC1CCN(C(=O)/C(=C/C=C\c2ccccc2)NC(=O)c2ccccc2)CC1	-2.81	-0.35
COc1ccc(C(N)=O)cc1OC(C)C	-0.7	2.35
O=C(NCC1CCCO1)c1ccc(-n2cc(-c3ccnc4ccccc34)cn2)cc1 (centres undefined)	52.9	/
CCC(=O)Oc1c(Sc2ccc(C)cc2)c(C)nn1C(C)(C)C	0.365	/
N#Cc1ccccc1S(=O)(=O)N1CCN(Cc2ccc3c(c2)OCO3)CC1	0.795	/
CCOC(=O)C1=C(c2ccccc2)N=C2SCC(=O)N2C1c1cccs1 (centres undefined)	0.085	/
C/C(=N\O)c1ccc(Cl)cc1Cl	-0.4	/
Cc1ccc(NC(=O)CSC(=N)N)cc1	0.625	-1.6
CCOC(=O)C(CC)Sc1nnc(-c2ccccc2Br)n1C (centres undefined)	/	-0.25
N#CCSc1nnc(-c2ccccc2)c2ccccc12	-0.095	-0.8
CCOC(=O)c1c(N)sc2c1CCN(C)C2	11.4	/
Cc1nc(C(=O)NCC(=O)c2ccc(Cl)cc2)c(C(F)(F)F)o1	0.035	-0.2
CCOCCC(=O)Nc1ccccc1Sc1ccccc1	-0.125	-0.2
CCN1C(=O)CC(C(=O)Nc2ccc(OC)cc2)SC1=Nc1cccc(Cl)c1 (centres undefined)	-0.48	/
O=C(Nc1ccc(-n2nc(C(F)(F)F)cc2C(F)(F)F)cc1)c1ccc(OC(F)(F)F)cc1	-0.08	/
CCC(=O)N(CCC(c1ccccc1)c1ccco1)Cc1ccc(N(C)C)cc1 (centres undefined)	0.47	0.25
COC(=O)c1cc(Br)c(NC(=O)c2ccco2)cc1OC	0.11	/
O=C(OC1CCCCC1)c1cc2ccccc2oc1=O	5.17	2.4
COc1ccc(S(=O)(=O)N2CCOCC2)cc1-c1nnc2c3ccccc3c(C)nn12	0.94	0.95
